# High-throughput results from PubChem BioAssay.
# PINK1 modulator – A Quantitative High throughput Screen to Identify Chemical Modulators of PINK1 Expression; Potency, µM (series often up to 76.6 µM), for the others: at the highest dose activation (PINK1 increase), most hits filed as activators; AID 624263, 2012; PINK1 immunofluorescence, high-content cytometry, 24 h; 0.2% of 410,000 active; active = well fitted activation curve with a large enough effect; inconclusive = small, poorly fitted or top-dose-only effect; inactive = flat fitted curve, though single readings scatter; cell line not stated here;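 also: potency is read from the fitted curve at half-maximal effect; % of control where 0% means no effect; nearly all actives have a fitted effect of over 65% in size; a mitochondrial uncoupler was the plate control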
#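 Stable cell line treated 24 h with compounds at 5 concentrations (CCCP controls), then fixed and immunostained for PINK1 plus nuclear and cell stains; PINK1 immunofluorescence quantified by laser-scanning microplate cytometry.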
# D2 agonist – Beta-Arrestin HTS for Positive Allosteric Modulators of the Human D2 Dopamine Receptor: Agonists | D(2) dopamine receptor (Homo sapiens), P14416 | DiscoveRx PathHunter D2 beta-arrestin, luminescence, 90 min; 100% = 57 uM dopamine signal | activation, % (concentration not given with the values) | 0.084% of 360,000 active | AID 624465, 2012; in the data active = activation above about 40%; inconclusive = about 15% to 40%; inactive = below about 15%; also: compound concentration not given in the record; the text of the record calls up to 30% inactive
#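 DiscoveRx PathHunter D2 beta-arrestin cells (2,100/well) attached overnight, then compound-stimulated 90 min at 37 C in HBSS/10 mM HEPES/0.1% Tween-20 buffer; beta-galactosidase complementation read by luminescence after 1 h at ambient temperature. Dopamine 57 uM final (EC100) as control.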
# Sfp inh – qHTS Assay for Inhibitors of Bacillus subtilis Sfp phosphopantetheinyl transferase (PPTase). 4'-phosphopantetheinyl transferase ffp (Bacillus subtilis), Q9F4F7. Biochemical Sfp PPTase activity, qHTS. Potency, µM, for inactives: max response, negative = inhibition, actives largely listed as inhibitors. 3.5% of 310,000 active. AID 1490, 2009; active = well fitted inhibition curve with a large enough effect; inconclusive = small, poorly fitted or top-dose-only effect, or another doubt; inactive = no such curve, though single readings can be large or run the other way;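 also: the enzyme is Sfp with the accession as filed and its product quenches rhodamine fluorescence; potency is read from the fitted curve at half-maximal effect; 0% = enzyme reaction without inhibitor and -100% = no enzyme wells; top concentration of the series not given in the record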
#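 Fluorescence-quenching assay: 15 nM Sfp-PPTase preincubated 15 min at room temperature with compound, then 5 uM rhodamine-CoA and 12.5 uM BHQ-2-labelled YbbR peptide added. Fluorescence (ex 525/em 598 nm) read at start and after 30 min; difference gives rate.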
# CtBP-E1A blk – qHTS Assay for Inhibitors of the CtBP/E1A Interaction; AID 651724, 2012; CtBP / adenovirus E1A interaction (AlphaScreen); 0.49% of 340,000 active; activity change, % (concentration not given with the values); AlphaScreen GST-E1A/His-CtBP binding, 1536-well; active compounds read low; control for the full effect not named in the record; in the data active means activity change below about -65%; inconclusive means about -30% to -65%; inactive means above about -30%; also: % is scaled to controls: 0 for no effect and ±100 for the full control effect
#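 AlphaScreen with 125 nM GST-E1A and 125 nM His-CtBP (5X stocks) in Tris pH 8.0, 300 mM NaCl, BSA, Tween 20, TCEP. Compounds preincubated 2 h at 37 deg C, then glutathione donor/nickel acceptor beads added for 1 h at 37 deg C in dark.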
# Six1-Eya2 inh – qHTS Assay for Inhibitors of the Six1/Eya2 Interaction. Homeobox protein SIX1 (Homo sapiens) + Protein phosphatase EYA2 (Homo sapiens), …. AlphaScreen GST-Six1/His-Eya2 binding, biochemical; active compounds read low; control for the full effect not named in the record. activity change, % (concentration not given with the values). 0.56% of 360,000 active. AID 651725, 2012; in the data active = activity change below about -65%; inconclusive = about -30% to -65%; inactive = above about -30%; also: % is scaled to controls: 0 for no effect and ±100 for the full control effect
#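 AlphaScreen luminescence read after one hour at 37 °C in darkness. Pin-transferred compounds met GST-Six1 and His-Eya2 protein (5X stock 250 nM/500 nM) plus glutathione donor and Ni-chelate acceptor beads (5X, 50 ug/mL).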
# TRPV1 PAM – HTS Assay for Compounds that Act as Potentiators of the Vanilloid Receptor 1; Transient receptor potential cation channel subfamily V member 1 (Homo sapiens), Q8NER1; TRPV1-expressing cells, Fluo-8 calcium influx, capsaicin EC20 potentiation; host cell line not named in the record; control for the full effect not named in the record; potentiation, % at 8.33 µM; 0.02% of 320,000 active; AID 540277, 2011; active means potentiation above 80%; inconclusive means 30% to 80%; inactive means below 30%; also: 0% is about no effect
# Target sequence (Q8NER1 whole entry, looked up): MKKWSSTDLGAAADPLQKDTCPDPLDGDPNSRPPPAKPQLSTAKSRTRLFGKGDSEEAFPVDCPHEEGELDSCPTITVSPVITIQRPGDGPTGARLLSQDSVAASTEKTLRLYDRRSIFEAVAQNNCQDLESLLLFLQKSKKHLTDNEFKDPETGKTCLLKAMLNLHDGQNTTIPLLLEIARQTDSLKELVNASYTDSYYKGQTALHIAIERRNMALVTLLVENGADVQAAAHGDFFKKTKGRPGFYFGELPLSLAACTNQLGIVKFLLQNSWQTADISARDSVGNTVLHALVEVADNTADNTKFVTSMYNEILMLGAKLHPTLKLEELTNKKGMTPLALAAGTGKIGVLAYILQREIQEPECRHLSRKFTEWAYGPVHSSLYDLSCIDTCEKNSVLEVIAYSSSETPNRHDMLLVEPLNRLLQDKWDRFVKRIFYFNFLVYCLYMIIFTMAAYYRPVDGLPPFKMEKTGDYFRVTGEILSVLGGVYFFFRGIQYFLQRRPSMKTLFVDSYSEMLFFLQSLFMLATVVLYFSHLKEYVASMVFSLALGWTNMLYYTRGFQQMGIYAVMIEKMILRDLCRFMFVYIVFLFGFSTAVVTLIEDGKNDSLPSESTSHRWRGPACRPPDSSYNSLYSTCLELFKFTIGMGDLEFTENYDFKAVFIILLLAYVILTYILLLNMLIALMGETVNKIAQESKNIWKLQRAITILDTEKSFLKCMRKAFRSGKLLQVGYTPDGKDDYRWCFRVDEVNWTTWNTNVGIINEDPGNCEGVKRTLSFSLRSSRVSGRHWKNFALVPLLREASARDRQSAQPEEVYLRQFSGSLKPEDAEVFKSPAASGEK
#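 TRPV1-expressing cells were cultured overnight at 35.5C and loaded with Fluo-8 calcium dye for 40 to 90 min at room temperature. After a 10 s baseline, compound was added and calcium influx was read kinetically for 3 min (ex 480/em 520 nm).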
# D2 potentiator – Beta-Arrestin HTS for Positive Allosteric Modulators of the Human D2 Dopamine Receptor: Potentiators | D(2) dopamine receptor (Homo sapiens), P14416 | DiscoveRx D2 beta-arrestin cells, luminescence, 90 min; 100% = 57 uM dopamine signal | potentiation, % (concentration not given with the values) | 0.23% of 360,000 active | AID 624464, 2012; active = potentiation of 50% or more; inconclusive = 30% to 50%; inactive = 30% or less;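 also: compound concentration not given in the record; tested on top of an EC20 dose of dopamine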
#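 D2 cells co-treated with compound plus 50 nM dopamine (EC20) for 90 min at 37 deg C to detect potentiation. Beta-arrestin recruitment was read as enzyme-fragment luminescence after 1 h at ambient temperature. Full response was set by 57 uM dopamine.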
# Active calls of the source: *; ? = inconclusive; / = no result given; [ ] = dose if it differs, or a comment.
SMILES,PINK1 modulator,D2 agonist,Sfp inh,CtBP-E1A blk,Six1-Eya2 inh,TRPV1 PAM,D2 potentiator
O=C1C(=O)N(Cc2cccnc2)C(c2ccccn2)/C1=C(/O)c1ccc(F)cc1 (stereo not given),3.3%,3.2,89.1µM*,-0.1,0.6,9.0,-1.3
O=C(CCSCc1ccc(Cl)cc1)NCc1cccnc1,-2.0%,-1.1,23.5%,-18.9,-13.7,-3.2,-27.2
O=C(CCc1nc(-c2ccccc2F)no1)NCc1ccco1,-3.9%[38.3 µM],0.8,5.0%,1.5,3.8,6.4,-4.1
Cc1nnc(NC(=O)CSc2nc3ccccc3[nH]2)s1,-0.9%,-1.0,2.6%,-13.8,0.8,8.1,-11.4
CCOC(=O)c1cc2sc(C)cc2n1C(C)C(=O)OCC (stereo not given),1.6%[38.3 µM],0.2,-2.5%,8.8,9.9,-13.5,-2.6
CNC(=O)CSc1nnc(-c2ccco2)n1-c1ccc(C)cc1,-1.5%,-2.4,12.0%,2.5,1.4,3.1,-30.1
CC(C)CN1CCNC(=O)C1CC(=O)N(C)CC1CCOCC1 (stereo not given),-0.7%,-1.2,-5.0%,-0.7,11.0,8.2,-8.3
Cc1ccc(C(=O)N[C@H](C(=O)OCc2nnc(-c3ccccc3)o2)C(C)C)cc1,0.1%,3.0,1.3%,-1.8,5.0,-4.7,-6.8
Nc1[nH]c(C(=O)c2ccccc2)c(-c2ccccc2Br)c1C(=O)NCCc1ccc(Cl)cc1Cl,7.8%,/,/,-18.3,1.1,/,/
CSc1ccccc1C(=O)Nc1ccccc1C(=O)N1CCCC1,-2.9%,-2.0,5.6%,4.1,-9.9,2.8,-0.9
CCOc1ccccc1NC(=O)CSc1nnc2ccc(-c3ccncc3)nn12,2.0%,2.0,14.7%,-2.9,2.8,3.6,-1.1
O=S(=O)(NCc1ccccc1)c1cccc(S(=O)(=O)N2CCOCC2)c1,-2.2%,-2.7,19.1%,-6.0,-1.7,-8.1,8.4
CCSc1ncc(Cl)c(C(=O)Nc2ccccc2OC)n1,0.3%,-4.0,12.2%,-2.0,6.1,7.4,-0.5
COCCNc1nc(NCCOc2ccccc2Cl)c2sc(-c3ccccc3)cc2n1,25.6%,-5.6,/,-5.0,-1.8,/,-26.0
Cc1ccc(N2CCN(/N=C/c3ccncc3)CC2)cc1,-2.7%,-1.6,-6.4%,-17.2,-20.5,-5.9,-4.6
COc1ccc(Cc2noc(CN3CCN(Cc4csc(C)n4)CC3)n2)cc1OC,0.2%,0.7,17.8%,12.3,?,2.0,0.0
CCS(=O)(=O)Nc1ccc(C2=NN(C(=O)c3ccco3)C(c3ccco3)C2)cc1 (stereo not given),?,-1.3,/,-4.1,-13.9,-20.8,17.4
NC(=O)N/N=C/CCc1ccccc1,3.9%,-3.3,16.1%,4.3,1.5,2.8,-5.0
CN(NC(=O)c1ccccc1)C1=NS(=O)(=O)c2ccccc21,-0.4%,-1.5,22.0%,-1.9,2.8,3.0,-3.6
CC(C)Oc1cc(F)ccc1-c1cc(C(=O)Nc2cccc(Cl)c2)[nH]n1,?,-0.4,/,-2.2,0.8,/,-6.8
COCCn1c(=S)[nH]c2cc(C(=O)N3CCN(C4CCCCC4)CC3)ccc2c1=O,1.3%,-11.6,/,4.9,7.0,/,-8.9
COc1ccc(C(C)(NC(C)=O)c2nc(-c3ccccc3OC)cs2)cc1 (stereo not given),3.7%,-4.8,/,-5.0,-10.5,/,-2.5
CCOc1ccc(N/N=C(/C#N)C(N)=O)cc1,-1.8%[38.3 µM],-3.2,11.9%,-10.9,-13.9,-2.4,-11.1
CC1=C(C)/C(=N\OS(=O)(=O)c2ccc(C)cc2)C=CC1=O,-1.2%,48.1*,31.6µM*,3.6,6.8,?,67.0*
CCCS(=O)(=O)NC(=O)C1(C)CCN(C(=O)c2ccc(SC(F)(F)F)cc2)C1 (stereo not given),-0.7%,-4.8,/,8.5,-7.1,/,-2.0
CCC(C)(C)NC(=O)C(c1cccc(OC)c1OC)N(CC(C)C)C(=O)CCC(=O)Nc1cc(C)on1 (stereo not given),1.6%,-0.3,7.8%,3.2,3.6,-4.7,-3.3
COc1ccc(OC)c([C@@H]2OCCC=C[C@H]2C)c1,2.9%,-2.9,17.6%,7.9,11.2,8.4,0.2
CC(=O)Nc1cccc(C(=O)NCC2(N3CCCCC3)CCCCC2)c1,0.8%,-6.5,2.6%,3.1,4.2,0.9,-7.3
COc1cccc(/C=C2/Sc3ccc(C(=O)NCCN4CCCCCC4)cc3NC2=O)c1,-1.4%,13.7,44.7µM*,/,-12.2,-4.3,-0.3
CC1(c2nnc(-c3ccc(Cl)cc3)o2)CC(c2ccncc2)=NO1 (stereo not given),-1.7%,-2.7,-6.9%,0.7,3.1,-13.2,-3.4
COc1ccc(C2CC(=O)Oc3cc(C)c(Cl)cc32)cc1 (stereo not given),2.2%,0.5,-16.4%,6.3,5.3,/,0.2
COC(=O)C1=C(C)Nc2[nH]c(=S)[nH]c(=O)c2C1c1ccc(O)cc1 (stereo not given),0.2%,-1.6,6.31µM*,5.6,-2.0,/,-3.0
COc1ccc(NC(=O)c2ccccc2NC(=O)CSc2ccccc2)cc1,10.7%,1.4,2.0%,-10.0,-1.5,-17.6,-10.6
CN(CC(=O)Nc1ccccc1Cl)C(=O)Cn1nnc(-c2ccc(F)cc2)n1,4.0%,-2.2,/,-3.7,-4.7,-4.3,-14.7
O=C(NCc1cccc(C(F)(F)F)c1)c1cccc(S(=O)(=O)NCc2ccccc2)c1,2.1%,-5.3,15.9%,7.8,2.4,10.7,-11.1
CC1Cc2ccccc2N1C(=O)COC(=O)c1n[nH]c(=O)c2ccccc12 (stereo not given),1.0%,-1.3,/,0.8,1.3,2.5,0.5
O=C(NCCC(=O)N1O[C@@H]2C=C[C@H]1C2)OCC1c2ccccc2-c2ccccc21,3.4%,1.6,/,5.6,8.3,/,/
Cc1ccccc1Cn1nc(C)c(NC(=O)c2cc3n(n2)C(C(F)F)CC(C(F)F)N3)c1C (stereo not given),0.1%,-0.4,15.4%,4.3,10.5,10.0,0.0
S=c1[nH]nc(-c2ccccc2Cl)n1Cc1ccccc1,-0.8%,-3.2,6.0%,-0.8,-1.9,25.9,-8.1
CC(C)(C)Cc1nnc(NC(=O)CCC2CCCCC2)s1,-0.9%,-2.4,-14.9%,3.4,1.8,18.3,-4.9

# Four compounds from above, sorted by their value in D2 agonist, lowest first:
SMILES	PINK1 modulator	D2 agonist	Sfp inh	CtBP-E1A blk	Six1-Eya2 inh	D2 potentiator
CCCS(=O)(=O)NC(=O)C1(C)CCN(C(=O)c2ccc(SC(F)(F)F)cc2)C1 (stereo not given)	-0.7%	-4.8	/	8.5	-7.1	-2.0
CC1Cc2ccccc2N1C(=O)COC(=O)c1n[nH]c(=O)c2ccccc12 (stereo not given)	1.0%	-1.3	/	0.8	1.3	0.5
COc1cccc(/C=C2/Sc3ccc(C(=O)NCCN4CCCCCC4)cc3NC2=O)c1	-1.4%	13.7	44.7µM*	/	-12.2	-0.3
CC1=C(C)/C(=N\OS(=O)(=O)c2ccc(C)cc2)C=CC1=O	-1.2%	48.1*	31.6µM*	3.6	6.8	67.0*

# Limited to D2 potentiator and Six1-Eya2 inh (two entries from above):
canonical_smiles,D2 potentiator,Six1-Eya2 inh
COc1ccc(NC(=O)c2ccccc2NC(=O)CSc2ccccc2)cc1,-10.6,-1.5
CN(CC(=O)Nc1ccccc1Cl)C(=O)Cn1nnc(-c2ccc(F)cc2)n1,-14.7,-4.7

# Continuation.
SMILES,PINK1 modulator,D2 agonist,Sfp inh,CtBP-E1A blk,Six1-Eya2 inh,TRPV1 PAM,D2 potentiator
COc1cccc(/C=C2\CCC(C3CCCC3)C2=O)c1OC (stereo not given),7.9%,3.6,-3.4%,15.8,14.6,1.4,14.6
O=C(COC(=O)C1CCN(C(=O)c2ccc(Cl)cc2)CC1)NC1CCS(=O)(=O)C1 (stereo not given),1.2%,0.2,15.6%,-22.7,5.5,-2.6,-8.2
Cc1cc(C)c2nc(/N=C(\N)NC(=O)c3ccccc3)nc(C)c2c1,-3.0%,-2.5,18.9%,1.7,-6.4,5.4,-6.2
CC(=O)OCC1OC(n2c(-c3ccc(Cl)cc3)ccc(C#N)c2=S)C(OC(C)=O)C(OC(C)=O)C1OC(C)=O (stereo not given),6.2%,0.7,/,1.5,-13.1,/,1.2
O=C(Nc1ccccc1C(=O)N1CCN(Cc2ccccc2)CC1)c1ccccn1,-3.0%,-2.6,-22.1%,2.5,-25.7,-4.1,-16.1
CC(C)[C@@H]1NC(=O)N(c2ccc(Oc3ccccc3)cc2)C1=O,0.0%,-1.1,3.6%,5.3,-2.3,?,-9.9
Cc1cc(=O)oc2cc(OCC(=O)N3CC(=O)Nc4ccccc43)c(Cl)cc12,-0.8%,0.5,/,-2.9,-0.8,-5.6,-1.3
CCCCS(=O)(=O)NC1=NCN(CCO)CN1,-5.6%,-2.0,1.6%,10.9,2.4,-17.3,2.6
CN(C(=O)c1ccccc1OCc1ccc(F)cc1)c1c(N)n(Cc2ccccc2)c(=O)[nH]c1=O,1.1%,-2.1,/,-18.4,0.1,2.9,-6.3
O=C(CSc1nnc(Cc2cc(=O)[nH]c(=O)[nH]2)n1-c1ccccc1)N1CCCc2ccccc21,2.0%,-5.2,-0.2%,7.2,-2.5,-8.5,-12.5
CC(C)OCCCn1c(=O)c2ccccc2n2c(CCC(=O)N3CCN(c4ccccn4)CC3)nnc12,0.8%,12.6,24.6%,3.8,-0.7,-12.2,1.2
CCOC(=O)NC(=O)C(=CNc1cccc(OC)c1)C(=O)NC(=O)OCC,7.1%,-0.8,-2.8%,4.9,6.2,6.9,3.2
CN(CC(=O)Nc1ccc(F)cc1)CC(=O)Nc1ccc(F)c(F)c1F,2.3%,-1.3,-4.7%,-4.6,3.2,-4.1,-4.5
